Source: PubChem (Johns Hopkins Ion Channel Center)
CHT block: inhibitors of human choline transporter CHT; actives 0.86% (n = 310,000); CHT-expressing cells, membrane potential dye, choline response; active compounds read low; AID 488975; B-score at 10 µM;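 active = B-score over 3 SD under the library average, and starting fluorescence ratio not unusually high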;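 also: choline stimulus applied at its EC90 after an EC20 pre-addition; B-score computed on integrated fluorescence ratio after choline addition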
Target sequence (Q9GZV3 whole entry, looked up): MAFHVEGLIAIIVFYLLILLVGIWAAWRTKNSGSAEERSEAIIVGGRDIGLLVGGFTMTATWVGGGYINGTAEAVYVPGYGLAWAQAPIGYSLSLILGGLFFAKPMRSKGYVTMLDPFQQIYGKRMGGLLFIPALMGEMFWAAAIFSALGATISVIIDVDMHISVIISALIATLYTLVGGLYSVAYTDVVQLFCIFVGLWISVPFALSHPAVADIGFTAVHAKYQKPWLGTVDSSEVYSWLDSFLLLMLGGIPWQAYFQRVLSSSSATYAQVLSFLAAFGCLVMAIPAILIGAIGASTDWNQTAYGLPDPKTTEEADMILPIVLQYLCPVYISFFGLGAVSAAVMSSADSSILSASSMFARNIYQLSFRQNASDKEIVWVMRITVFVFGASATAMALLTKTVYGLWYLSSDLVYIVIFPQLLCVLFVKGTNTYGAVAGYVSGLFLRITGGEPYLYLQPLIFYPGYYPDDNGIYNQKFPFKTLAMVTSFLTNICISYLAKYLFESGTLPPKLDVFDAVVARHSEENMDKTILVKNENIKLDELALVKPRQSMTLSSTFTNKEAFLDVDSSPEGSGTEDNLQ
Kir21 block: Kir2.1 (mouse) channel inhibition; P35561; HEK293-Kir2.1, FluxOR thallium flux fluorescence; active compounds read low; B-score at 10 µM; actives 0.85% (n = 310,000);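 active = fluorescence ratio B-score at or below minus 3 SD of library scores, with starting-brightness B-score within 2 SD, cut at about -4.2 in these data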;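 also: channel flux triggered by added potassium and thallium sulfate stimulus; B-score of peak minus minimum fluorescence over baseline after thallium stimulus; more negative B-score means stronger Kir2.1 block with less thallium influx; some compounds called inactive have numbers as strong as hits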
Target sequence (P35561 whole entry, looked up): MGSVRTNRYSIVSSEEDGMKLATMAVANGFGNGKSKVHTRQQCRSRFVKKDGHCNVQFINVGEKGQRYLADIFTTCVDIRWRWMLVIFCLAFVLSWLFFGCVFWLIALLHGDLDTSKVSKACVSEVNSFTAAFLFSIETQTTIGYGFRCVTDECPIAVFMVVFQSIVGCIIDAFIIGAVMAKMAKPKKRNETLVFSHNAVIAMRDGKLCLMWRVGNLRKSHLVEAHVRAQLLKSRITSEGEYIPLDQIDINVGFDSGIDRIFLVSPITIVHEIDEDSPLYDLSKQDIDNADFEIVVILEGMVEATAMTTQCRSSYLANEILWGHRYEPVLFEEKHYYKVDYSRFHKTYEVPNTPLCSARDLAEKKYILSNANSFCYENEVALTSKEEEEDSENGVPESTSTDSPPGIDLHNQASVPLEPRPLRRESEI
The depositor's hits bear a star; i = inactive; . = no result given. A portion of the library, and most or all hits are left out here.

no. | Compound | CHT block | Kir21 block
1 | CCc1cc(C(=O)N2CCCC(CCC(=O)NCc3cccc(OC)c3)C2)no1 (centres undefined) | i | 1
2 | O=C(NCc1ccco1)c1ccc(CNc2c(N3CCCCC3)c(=O)c2=O)cc1 | i | 0.67
3 | COC(=O)Cc1c(C(=O)OC)nnn1-c1ccc(OC(F)(F)F)cc1 | i | 0.89
4 | O=C(Nc1nc2c(Cl)cccc2s1)c1ccc(Br)o1 | i | 0.61
5 | CN(C)S(=O)(=O)c1ccc(C(=O)Nc2ccc(OCC(=O)N3CCOCC3)cc2)cc1 | i | -1.26
6 | Cc1ccc(C)c(N2CCN(C(=O)c3cccn4c(=O)c5sccc5nc34)CC2)c1 | i | -0.07
7 | Cc1cc(C)c(C(N)=O)c(Nc2cccc(Cl)c2)n1 | i | 0.07
8 | NS(=O)(=O)c1cc(C(=O)OCCNC(=O)c2ccccc2)c(Cl)cc1Cl | i | 1.08
9 | CCn1cc([N+](=O)[O-])c(C(=O)N2CCOCC2)n1 | i | -1.17
10 | O=C(CN1CCOCC1)Nc1c(C(=O)C2CC2)oc2ccccc12 | i | 0.97
11 | Cc1cc(NC(=O)c2ccc(Cl)cc2)n(-c2ccccc2)n1 | i | 0.02
12 | CC(C)(C)c1cc(-c2ccccc2)no1 | i | -0.26
13 | COc1ccc(CN(CC(=O)NC2CCCC2)C(=O)c2csnn2)cc1 | i | -0.68
14 | O=C1Nc2ccc(S(=O)(=O)N3CCCC3C(=O)O)c3cccc1c23 (centres undefined) | i | -0.49
15 | Cc1ccc(S(=O)(=O)Oc2ccc(/C=C(/NC(=O)c3ccccc3)C(=O)NC(C)C(=O)O)cc2)cc1 (centres undefined) | i | 1.42
16 | COc1ccc(CNS(=O)(=O)c2cc3c4c(c2)C(C)C(=O)N4CCC3)cc1 (centres undefined) | i | -1.54
17 | C=CCS(=O)(=O)c1nc2ccccc2s1 | i | 1.17
18 | CC1(C)Cc2c(sc3nc[nH]c(=O)c23)CO1 | i | 0.62
19 | CC(C)(C)Nc1nc(SCC(=O)Nc2ccccc2Cl)nc(N2CCOCC2)n1 | i | 0.68
20 | CCC(C)[C@H](NC(=O)N1CC(=O)Nc2ccccc21)C(=O)N[C@@H](Cc1c[nH]c2ccccc12)C(=O)O (some centres undefined) | i | -0.06
21 | COC(=O)C(/C=N/OCc1ccc([N+](=O)[O-])cc1)NC(=O)c1ccccc1 (centres undefined) | i | 0.51
22 | COc1ccccc1C(=O)COC(=O)CN1C(=O)c2ccccc2C1=O | i | 1.06
23 | O=C(NN1CCOCC1)NC12CC3CC(CC(C3)C1)C2 | i | 0.47
24 | c1ccc2c(SCc3cn4cccnc4n3)ncnc2c1 | i | 0.25
25 | CCOC(=O)c1sc(NC(=O)c2ccccc2C(=O)O)c(C(=O)OCC)c1C | i | -0.08
26 | COC(=O)C1=C(C(=O)OC)[C@@H]2Nc3ccccc3[C@@]23C[C@@H](C(=O)OC)N(C(C)=O)C3=N1 | i | 1.69
27 | NC(=O)CSc1nnc(-c2ccncc2)n1-c1ccc(Cl)cc1 | i | -0.76
28 | Cc1ccc(OC(=O)c2ccccc2P(=O)(O)O)cc1 | i | 1.14
29 | CCCNC(=O)NC(=O)COc1ccc(-c2ccc(C#N)cc2)cc1 | i | 1.47
30 | Cc1cc(N(CCO)CCO)ccc1C(c1ccc(N(CCO)CCO)cc1C)c1ccccc1Cl | i | 0.72
31 | COc1cccc(N2CCN(S(=O)(=O)c3cccc4cccnc34)CC2)c1 | i | 1.01
32 | CC(C)c1ccc(NC(=O)c2csnn2)cc1 | i | -0.48
33 | Cc1ccccc1NC(=O)C1CCCN(c2nnc(N3CCCC3=O)s2)C1 (centres undefined) | i | 0.03
34 | CC(=O)c1c(C(C)=O)c(C)n(-c2nc(-c3cccs3)c(C)s2)c1C | i | 0.13
35 | Cc1ccc(NC(=O)Cc2c(Cl)cccc2Cl)cc1S(=O)(=O)N(C)C | i | -0.95
36 | Cc1cc(N2CCCCC2)nc(N2CCCCC2)n1 | i | -0.45
37 | CC(C)CC(NC(N)=O)C(=O)NCc1ccccc1Cl (centres undefined) | i | 0.51
38 | O=C(C1=C[C@H](c2coc3ccccc3c2=O)C[C@H](OCc2ccc(CO)cc2)O1)N1CCOCC1 | i | -0.71
39 | COc1ccccc1-n1c(C)nc2cc(C(=O)NCc3ccc4c(c3)OCO4)ccc21 | i | -1.41
40 | CC(=O)N1CCN(c2ccc([N+](=O)[O-])c(NCc3cccnc3)c2)CC1 | i | 1.46
41 | O=C(c1coc2ccccc2c1=O)N1CCN(c2cccc(C(F)(F)F)c2)CC1 | i | 0.1
42 | CCN(Cc1ccncc1)C(=O)c1cc(COc2c(F)cccc2F)on1 | i | -1.35
43 | NS(=O)(=O)c1ccc(CCNC(=O)C2(S(=O)(=O)c3ccc(Cl)cc3)CC2)cc1 | i | -0.93
44 | Cc1cc(C)cc(OCC(=O)N/N=C\c2cn(C)nc2C)c1 | i | 0.84
45 | COc1ccc(OC)c(-n2c(=S)[nH]c3cc(C(=O)N(C)Cc4ccccc4)ccc3c2=O)c1 | i | -3.64
46 | CCOc1cc(/C=C/C(=O)O)ccc1OCc1ccccc1 | i | 1.86
47 | CC(C)N=C1CC(C)(C)CC(=O)/C1=C(/O)CCCN1C(=O)c2ccccc2C1=O | i | -0.84
48 | Cc1nn(C)cc1CN1CCC(CO)(CCOc2ccccc2)CC1 | i | -0.36
49 | O=C(Oc1ccccc1/C=C\C(=O)c1cc2ccccc2o1)c1ccccc1 | i | -0.15
50 | COC(=O)c1cc(OCC(=O)NC2CCCc3ccccc32)cc(C(=O)OC)c1 (centres undefined) | i | 2.06
51 | Cc1noc(NS(=O)(=O)c2ccc(NC(=O)c3ccc(OC(C)C)cc3)cc2)c1C | i | 0.5
52 | CNc1nc(NCCOC23CC4CC(CC(C4)C2)C3)nc(OCC(F)(F)F)n1 | i | -0.8
53 | Cc1ccc(/C=C/C(=O)Nc2cccnc2)o1 | i | -1.79
54 | COc1ccc2oc(C(=O)OC(C)C(=O)N(C)c3ccccc3)c(C)c2c1 (centres undefined) | i | -1.08
55 | CCOc1ccc(NC2=NCC(=O)N2CCc2ccccc2)cc1 | i | 1.23
56 | O=C(CSc1ncnc2c1oc1ccccc12)NC1CCCCC1 | i | 0.53

Other structures:
no. | Compound | CHT block | Kir21 block
57 | COc1cc(C(=O)NCCCc2nc3ccccc3n2Cc2cc(C)ccc2C)cc(OC)c1OC | i | 0.41
58 | O=C(NC1C2CC3CC(C2)CC1C3)c1ccc(Br)o1 (centres undefined) | i | 1.44
59 | CCOC(=O)/C(C#N)=C1/C=CN(c2ccc(C)cc2)C=N1 | i | 1
60 | CCCN(CC1CC1)S(=O)(=O)c1ccc(-n2cnnn2)c(OC)c1 | i | -1.35
61 | CCn1c(SCC(=O)O)nnc1C1CCCCC1 | i | 0.84
62 | Cc1c(CCO)c(=O)[nH]n1S(=O)(=O)c1ccc([N+](=O)[O-])cc1 | i | -0.03
63 | CCC1CCCCN1C(=O)CSc1nnc(-c2ccc(Cl)cc2)o1 (centres undefined) | i | -0.39
64 | CCN(CC)C(=O)C[n+]1cccc(/C=N/O)c1 | i | 0

Some of the entries so far, with two lines to a compound.
Screens in order – CHT block | Kir21 block
57: COc1cc(C(=O)NCCCc2nc3ccccc3n2Cc2cc(C)ccc2C)cc(OC)c1OC
  i | 0.41
58: O=C(NC1C2CC3CC(C2)CC1C3)c1ccc(Br)o1 (centres undefined)
  i | 1.44
59: CCOC(=O)/C(C#N)=C1/C=CN(c2ccc(C)cc2)C=N1
  i | 1
60: CCCN(CC1CC1)S(=O)(=O)c1ccc(-n2cnnn2)c(OC)c1
  i | -1.35
61: CCn1c(SCC(=O)O)nnc1C1CCCCC1
  i | 0.84
62: Cc1c(CCO)c(=O)[nH]n1S(=O)(=O)c1ccc([N+](=O)[O-])cc1
  i | -0.03

New compounds follow:
no. | Compound | CHT block | Kir21 block
65 | CC(=O)c1cc(C#N)c(SCCC(C)C)nc1C | i | 1.23
66 | CC(=O)Nc1cc2c(cc1Br)OCCO2 | i | -0.33
67 | O=C(N/N=C/CCc1ccccc1)c1ccccc1 | i | 0.04
68 | COc1ccc(OC)c(/C=N/n2c(-c3n[nH]c4c3CCC4)n[nH]c2=S)c1 | i | -0.83
69 | O=C(NC1CCCC1)C(c1ccncc1)N(C(=O)c1csnn1)c1ccc(F)c(Cl)c1 (centres undefined) | i | 1.16
70 | Cc1cc(C)n(-c2nnc(C)n2/N=C/c2ccco2)n1 | i | 0.22
71 | NC(=O)[C@H]1CC2(CC(c3cccc(NC(=O)[C@H]4CCC(=O)N4)c3)=NO2)CN1C(=O)CC(c1ccccc1)c1ccccc1 (some centres undefined) | i | 0
72 | COc1ccc(S(=O)(=O)N2CCOCC2)cc1NC(=O)Cc1sc(C)nc1-c1ccc(F)cc1 | i | -3.65
73 | CCO/C=C1/C(=O)N(C)C(=O)c2cc(OC)ccc21 | i | -0.37
74 | COc1ccccc1CNCC(=O)Nc1ccc(N2CCOCC2)cc1 | i | -0.3
75 | CCOC(=O)c1ccc2nc(NC(C)=O)sc2c1 | i | -0.24
76 | CC(NC(=O)CN1CCCC1)c1ccccc1 (centres undefined) | i | 0.76
77 | COc1ccc(CC(=O)Nc2ccc(OC(C)=O)cc2C(=O)O)cc1 | i | 0.47
78 | Cc1nc(SCC(=O)NCc2ccco2)nc(C)c1C | i | -0.32
79 | COc1cc(C(=O)O/N=C(\N)c2ccncc2)cc(OC)c1OC | i | 0.58
80 | O=C(CSc1nc2ccc(Cl)cc2[nH]1)c1cccs1 | i | -0.37
81 | CCCN(CCC)C(=O)CC(c1ccc(F)cc1)c1ccco1 (centres undefined) | i | -3.98
82 | OC1CCN(Cc2nc(Cc3ccccc3Cl)no2)CC1 | i | 1.27
83 | CCC(C)NCC(=O)Nc1cc(S(=O)(=O)N(CC)c2ccccc2)ccc1Cl (centres undefined) | i | -3.32
84 | CCn1c(SC(C)C(=O)Nc2nnc(C)s2)nnc1-c1ccco1 (centres undefined) | i | 0.2
85 | O=C(c1ccc(C#CC2(O)CCCCC2)cc1)N1CCOCC1 | i | -0.43
86 | O=C1/C(=C/c2cccs2)N=C(c2cccs2)N1Nc1ccccc1 | i | -0.76
87 | COC(=O)c1scc(C)c1NC(=O)/C=C/C(=O)O | i | 1.58
88 | CN(C)c1ccc(C(=O)OCc2ccc(Br)cc2)cc1 | i | 0.87
89 | CC(NC(=O)CCC(=O)c1ccc(F)cc1)C1CC2CCC1C2 (centres undefined) | i | -0.84
90 | Cc1cc(C)cc(-n2nnn(C3C/C(=N/NC(N)=S)C4OCC3O4)c2=S)c1 (centres undefined) | i | -0.05
91 | O=C(Nc1ccnc(=O)[nH]1)c1sc2ccccc2c1Cl | i | -2.16
92 | c1ccc(Oc2nnc(-c3cccs3)c3ccccc23)cc1 | i | 2.43
93 | CC(C)(C)[C@H]1C=C(C(=O)N2CCOCC2)O[C@@H](OCCCCO)C1 | i | -0.67
94 | C=C1SC(=Nc2ccccc2Cl)N(C(=O)c2sc3ccccc3c2Cl)C12CCCCC2 | i | 0.87
95 | C=CCN1CC(c2nc3ccccc3n2Cc2ccccc2)CC1=O (centres undefined) | i | -1.57
96 | S=C(NCc1ccccc1Cl)NC1CCCC1 | i | 1.12
97 | O=C(COc1ccccc1Cl)Nc1cc(Cl)ccc1Oc1ccccc1 | i | 0.38
98 | CCc1ccccc1NC(=O)c1cccc(N2C(=O)C3C4CCC(C4)C3C2=O)c1 (centres undefined) | i | -0.01
99 | Nc1ncnc(Nc2cccc(F)c2)n1 | i | -0.09
100 | Cc1nc(SCc2ccccc2)c([N+](=O)[O-])[nH]1 | i | 1.62
101 | O=C(NCc1cccs1)C1CCC(CNS(=O)(=O)c2ccc(Br)s2)CC1 (centres undefined) | i | 0.38
102 | CC1=CCC(C(=O)O)(C(=O)N/N=C/c2cccs2)C(c2ccc(F)cc2)C1 (centres undefined) | i | -0.44
103 | CC1CCCCN1CCn1c(=S)[nH]c2ncccc2c1=O (centres undefined) | i | 1.27
104 | COC(=O)c1cccc2c1-c1ccccc1/C2=N/O | i | 0.54
105 | Cc1cc(C)c2c(=O)[nH]c(SCC(=O)NCc3ccccc3)nc2n1 | i | -0.6
106 | COc1ccc(NC(=O)C2=CC(c3ccco3)=NS(=O)(=O)N2C)cc1 | i | 0.76
107 | Cc1ccc(CSCC(=O)NCCCN2CCOCC2)cc1 | i | 1.42
108 | c1ccc(CCn2nnnc2C(c2cccs2)N2CCN(Cc3ccc4c(c3)OCO4)CC2)cc1 (centres undefined) | i | -2.69
109 | Cn1ccnc1SCC(=O)Nc1cc(S(=O)(=O)N2CCOCC2)ccc1Cl | i | 2.11
110 | O=C(CN1C(=O)C(=O)c2ccccc21)OCN1C(=O)c2ccccc2C1=O | i | -0.38
111 | COc1ccccc1N1CCN(C(=O)Cn2c(=O)[nH]c3ccsc3c2=O)CC1 | i | 0.11
112 | O=C(CSc1nc2c(c(=O)n1-c1ccc(Br)cc1)SCC2)NCc1ccco1 | i | -0.3
113 | COc1cc(CN2CCCC(CO)(Cc3cccc(Cl)c3)C2)cc2c1OCO2 (centres undefined) | i | -2.53
114 | O=C(NC(=O)c1cccc(Cl)c1)OC[C@@H]1CCCN2CCCCC12 (some centres undefined) | i | 0.57
115 | CN(C)c1ccc(C(=O)Nc2ccc(CN3CCS(=O)(=O)CC3)cc2)cc1 | i | -2.76
116 | CC(C)C(NS(=O)(=O)c1cccc2nsnc12)C(=O)N1CCn2c1nc1ccccc12 (centres undefined) | i | 0.84
117 | Cc1ccc(-n2ncc(Br)c(Br)c2=O)cc1 | . | -1.15
118 | CCC(C)c1ccc(OCC(=O)O)cc1 (centres undefined) | i | -1.41
119 | CCNC(=S)Nc1ccc(N(c2ccccc2)C(C)C)cc1 | i | -1.26
120 | COC(=O)CNC(=O)c1ccc(F)cc1 | i | 1.53
121 | COC(=O)C1=C(C)NC(=O)NC1c1ccc2c(c1)OCO2 (centres undefined) | i | -1.94
